Screens (PubChem BioAssay)
AmpC nodet inh = blocks E. coli AmpC beta-lactamase in absence of detergent; 71,000 compounds, 1.8% hits; AmpC nitrocefin hydrolysis, absorbance 480 nm, no detergent; potencies from a single point are estimates; Potency, µM (series often up to 28.7 µM), inactives show at the highest dose activity change, negative = inhibition; AID 585; P00811; active = falling curve, for most hits resting on a single point; inconclusive = weak or doubtful change; inactive = flat or rising curve; further: % of control where 0% means no effect; about half of the hits show no inhibition at the top dose; a quarter of the inactives give rising signals
Target sequence (P00811 whole entry, looked up): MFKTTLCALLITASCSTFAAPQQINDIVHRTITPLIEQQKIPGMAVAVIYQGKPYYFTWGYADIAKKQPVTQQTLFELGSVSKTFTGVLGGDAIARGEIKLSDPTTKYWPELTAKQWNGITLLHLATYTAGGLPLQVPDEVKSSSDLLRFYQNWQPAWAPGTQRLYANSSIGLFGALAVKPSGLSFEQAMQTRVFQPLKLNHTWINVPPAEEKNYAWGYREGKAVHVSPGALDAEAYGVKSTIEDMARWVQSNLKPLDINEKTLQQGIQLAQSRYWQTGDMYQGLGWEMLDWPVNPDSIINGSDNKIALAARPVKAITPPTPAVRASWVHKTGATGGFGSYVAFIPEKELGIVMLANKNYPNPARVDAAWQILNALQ
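AmpC in 20 mM phosphate buffer pH 7.0 was preincubated 15 min at room temperature with compounds. Nitrocefin (800 uM stock) was then added and hydrolysis followed at 480 nm every 20 s for 4 min.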
The depositor's hits bear a star; ? = inconclusive; [ ] = remark or other dose. Potency means the concentration at half of the fitted maximal effect.

SMILES	AmpC nodet inh
CCS(=O)(=O)N1CCc2cc(OC)c(OC)cc2C1	1.5%
O=C(NC1CCCC1)C(c1cccnc1)N(C(=O)c1csnn1)C1CC1 (centres undefined)	-5.0%
Cc1nn(-c2ccccn2)c(C)c1Oc1ccccc1O	1.4%
c1ccc(CNc2ncnc3ccccc23)cc1	-9.2%
CCN(CC)c1ccc(NC(=O)CN2C(=O)CSc3ncccc32)c(C)c1	-7.0%
Cc1ccc(-c2noc(CCC(=O)N3CCN(c4cccc(C(F)(F)F)c4)CC3)n2)cc1	92.6%
Cc1[nH]c(=O)[nH]c(=O)c1NC(=O)CSc1ncccc1-c1nc2ccccc2[nH]1	11.8%
Cc1ccc(Cl)cc1N1CCN(C(=O)C2CCN(c3nnc(-n4cccc4)s3)CC2)CC1	73.7%
Cc1cc(C)n(-c2nc3c(c(=O)n(C)c(=O)n3C)n2Cc2cccc(Br)c2)n1	87.1%
COc1ccc(/C=N\n2nnc3ccccc32)cc1	6.8%
Cc1cccc(CS(=O)(=O)Cc2ccc(C(=O)NCc3ccco3)o2)c1	-8.7%
CCCCCCCCCCCCC1CO1 (centres undefined)	-2.1%
O=C(O)CSc1nnc(-c2ccncc2)n1CCc1ccccc1	-0.9%
CCOC(=O)c1cc2c(=O)n(C)c3ccccc3c2s1	-2.5%
COc1ccc(-c2nnc3ccc(SCC(=O)N4CCCC4)nn23)cc1	16.9%
CCc1nc2ccc(C(=O)NCc3ccco3)cc2nc1CC	15.3%
O=C(O)C1C2C=CC(O2)C1C(=O)NCc1ccc(Cl)cc1 (centres undefined)	-2.8%
Cc1ccccc1NC(=O)CN1C(=O)COc2ccc(Cl)cc21	1.7%
COc1ccccc1CNc1nc(-c2cccc(NS(C)(=O)=O)c2)nc2ccccc12	-10.9%
CCCCN1C(=O)C(O)(CC(=O)c2ccccc2OC)c2ccccc21 (centres undefined)	30.1%
CC(C)OC(=O)c1cc(=O)[nH]c2ccccc12	4.6%
O=P(OCCCl)(OCCCl)OCCCl	3.8%
COc1cccc(CC(=O)Nn2c(C)nc3ccccc3c2=O)c1	5.8%
CSc1ccc(S(=O)(=O)NCc2ccccc2Cl)cc1	-14.7%
CCc1nnc(NC(=O)c2cc3c(s2)CCCCC3)s1	-24.7%

Next section.
SMILES	AmpC nodet inh
Cc1cc(C)cc(N(CC(=O)NCC2CCCO2)C(=O)CN2C(=O)COc3ccccc32)c1 (centres undefined)	108.2%
Cc1ccc(NC(=O)N2CCC(C(=O)NCCC3=CCCCC3)CC2)cc1	-3.6%
Cc1onc(-c2ccccc2Cl)c1C(=O)Nc1cccnc1	6.9%
Cc1ccc(NC(=O)CS(=O)CC(=O)NCC2OCCc3ccccc32)c(C)c1 (centres undefined)	30.5%
COc1ncc2nc(-c3ccc(Cl)cc3)c(=O)n(Cc3cccs3)c2n1	3.1%
O=C(Nc1ccc(C(=O)Oc2ccccc2)c(O)c1)c1ccco1	-13.1%
O=C1c2ccccc2-c2cc([N+](=O)[O-])c([N+](=O)[O-])cc21	-17.2%[5.75 µM]
CCN(CC)CCN1C(=O)C(=O)/C(=C(/O)c2cccc(OC)c2)C1c1ccccn1 (centres undefined)	-2.0%
Cc1nc(Nc2ccncc2)c2oc3ccccc3c2n1	-0.8%
O=C(O)[C@@H]1CCCC[C@@H]1C(=O)N1CCc2ccccc2C1CN1C(=O)c2ccccc2C1=O (some centres undefined)	-7.3%
COc1ccc(-c2nc3cnc(OC)nc3n(C[C@H]3CCCO3)c2=O)cc1	83.0%
Nc1nnc(CCN2C(=O)CSC2=O)s1	-11.8%
COc1ccc(C(=O)c2oc3ccccc3c2N)cc1	2.0%
COc1ccc(C(C#N)(CCC#N)CCC#N)cc1OC	2.0%
COc1ccc(C)cc1NC(=O)CSc1nc(SC)ns1	0.4%
COCc1cc(=O)[nH]c(SCC(=O)Nc2ccccc2)n1	-14.6%
Cc1ccc(NC(=O)c2ccc3ccccc3n2)nc1	20.0%
Cn1c(=O)c2c(nc(NCc3ccccc3)n2Cc2ccc(F)cc2)n(C)c1=O	64.7%
O=C(CCc1nc2ccccc2c(=O)[nH]1)N1CCN(C/C=C/c2ccccc2)CC1	93.2%
O=C(NCC1CCCO1)c1csc2c1CCCC2 (centres undefined)	-14.4%
CNc1ccc(OC(F)F)cc1C(=O)c1ccccc1	-4.3%
CCOC(=O)C1CCCN(c2c(NCCCN(CC)c3cccc(C)c3)c(=O)c2=O)C1 (centres undefined)	56.8%
COc1ccc(-c2nc(CS(=O)CC(=O)NCc3ccccn3)c(C)o2)cc1 (centres undefined)	1.26µM*[single pt active]
O=C(OCC(O)CN1CCCCC1)C12CC3CC(CC(C3)C1)C2 (centres undefined)	-2.2%
O=C(Nc1ccccc1)c1ccc2nc(-c3ccco3)c(-c3ccco3)nc2c1	-3.3%

Continuation:
SMILES	AmpC nodet inh
COC(=O)NCCOC(=O)N(O)c1ccc(Br)cc1	-2.2%
O=C(COc1ccc2c(c1)OCO2)NC12CC3CC(CC(C3)C1)C2	6.7%
COc1ccccc1N1CCN(c2cc(=O)n(-c3ccc(Cl)cc3)c(=O)[nH]2)CC1	1.9%
Cc1nc2ccc(NC(=O)N3CCCCC3)cc2s1	5.6%
O=C(NCc1cccs1)c1cccnc1C(=O)O	-2.4%
Cc1cc(C)cc(N(CC(=O)NC2CCCCC2)C(=O)CCC(=O)Nc2cc(C)ccn2)c1	27.4%
O=C(Nc1c(C(=O)N2CCOCC2)cnn1-c1ccccc1)c1ccco1	-5.3%
O=C(CCNC(=O)Cn1ccc2ccccc2c1=O)NCCN1CCN(c2ccccc2F)CC1	66.6%
Cc1ccc(C(=O)NCc2ccc(Cl)cc2)o1	4.2%
NC(=O)CN1C(=O)C2CCCCN2C(=O)c2ccccc21 (centres undefined)	-12.9%
CSCc1nnc(NC(=O)c2ccc(S(=O)(=O)N(CC(C)C)CC(C)C)cc2)o1	-5.6%
CCn1cc(C(=O)NC2CCCCC2)c(=O)c2cc(S(=O)(=O)N(C)C)ccc21	3.98µM*[single pt active]
CCN(CC)c1ccc(/C=N/n2c(=S)[nH]nc(C)c2=O)cc1	-7.2%
CC1=C(C(=O)OCC2CCCO2)C(c2ccc(C)o2)C2=C(CC(c3ccc(N(C)C)cc3)CC2=O)N1 (centres undefined)	85.5%
COC(=O)[C@@]1(Cc2ccc(OC)cc2)[C@H]2c3cc(C(=O)N(C)C)n(Cc4ccccn4)c3C[C@H]2CN1C(=O)c1ccccc1	155.3%
CCc1nc(SC)[nH]c(=O)c1C	-8.9%
CC(C)c1ccc(-c2nnn(Cc3nc4ccccc4s3)n2)cc1	-2.4%
Cc1nc2ccccc2c2c1C(=O)N(C(C)C)C2=O	64.3%
O=C(Nc1cccnc1)c1ccc(Oc2ccccc2)cc1	12.6%
COc1ccc(C(=O)N2CCC[C@@]3(CCN(C(=O)NC(C)C)C3)C2)cc1	13.9%
O=C(NCc1ccccn1)c1cc(-c2ccccc2)on1	2.9%
O=C(Nc1nc(-c2ccccn2)cs1)C1COc2ccccc2O1 (centres undefined)	9.7%
Clc1ccc2oc(-c3ccccn3)nc2c1	14.3%
OCc1nc2ccccc2n1CC(O)COc1ccccc1 (centres undefined)	15.1%
O=C(CSc1nnc(CNc2ccc(F)cc2)n1Cc1ccco1)N1CCCC1	52.7%

New compounds follow
SMILES	AmpC nodet inh
CCC(c1nnnn1Cc1ccc2c(c1)OCO2)N1CCN(c2ccc(OC)cc2)CC1 (centres undefined)	74.6%
CN(C)Cc1cc(C(C)(C)c2cc(CN(C)C)c(O)c(CN(C)C)c2)cc(CN(C)C)c1O	-1.2%
C[C@@H](C(=O)Nc1ccc2ccccc2c1)[C@@H]1C[C@@]1(C)[C@@H](NS(=O)(=O)c1ccccc1)c1ccccc1	-13.7%
CCN1C(=O)c2cccc3c(S(=O)(=O)NCc4ccco4)ccc1c23	-3.8%
CC(C)NC(=O)CN(C)S(=O)(=O)c1ccc(F)cc1	-17.1%
FC(F)(F)c1cnc(Nc2ccc(N3CCOCC3)cc2)c(Cl)c1	87.2%
Cn1c(C(=O)O)c(CC(=O)Nc2ccc(F)cc2F)c2ccccc21	-10.8%
O=c1c(-c2cc(F)cc(F)c2)nc2cnc(N3CCNCC3)nc2n1C1CC1	46.7%
Cc1cc(C)n2c(SCC(=O)Nc3ccccc3)nnc2n1	21.9%
COc1cccc(S(=O)(=O)N2CCN(c3ccccc3F)CC2)c1	11.2%
CCNC(=O)C1CC(=O)N(Cc2ccc3c(c2)OCO3)C(=Nc2ccc(F)cc2)S1 (centres undefined)	34.4%
CCOC(=O)c1cnc2nc(COc3ccccc3)[nH]n2c1=O	65.4%
C[C@H]1CC[C@@H]2[C@@H](C)C(=O)O[C@H]3O[C@@]4(C)CC[C@@H]1[C@]32OO4	6.5%
COC(=O)C1=C(C)NC(=O)NC1c1ccccc1 (centres undefined)	-2.5%
Cc1cc(C)c2nc(-c3ccccn3)cc(C(=O)NCc3ccco3)c2c1	31.1%
O=c1c2ccccc2nc2n1CCN2	1.9%
O=C(NCCN1CCCC1)c1ccc2c(=O)n(CCc3ccccc3)c(=O)[nH]c2c1	23.6%
Cc1ccc(OCC(=O)N2CCCCCC2)c(C)c1	22.7%
Nc1ccccc1N	-18.7%
CCCc1cc(C(=O)Cc2ccc(C(=O)OCC)o2)c(O)cc1O	-11.9%
O=C1NCCCC1C(=O)Nc1ccccn1 (centres undefined)	-8.7%
COc1ccccc1-n1nc(C(=O)NCc2ccco2)c2ccccc2c1=O	39.1%
O=C1CCCc2c1nn(-c1ccccc1)[n+]2[O-]	-2.0%
CC(=O)NC(C)C(=O)OCc1ccc(Cl)cc1Cl (centres undefined)	20.8%
CSCCC(NC(=O)c1ccccc1)c1nc(-c2ccccc2)no1 (centres undefined)	-8.5%

(further entries)
SMILES	AmpC nodet inh
O=C(Nc1cccc(F)c1)N1CCC2(CC1)CCN(S(=O)(=O)c1ccccc1)CC2	12.5%
C=C(C)[C@H]1CC[C@]2(C(=O)O)CC[C@]3(C)[C@@H](CC[C@H]4[C@@]5(C)CC[C@@H](O)C(C)(C)[C@@H]5CC[C@@]43C)[C@H]12	-5.1%[12.8 µM]
CN(C)/C=C/c1c(C#N)c(=O)ncn1Cc1ccccc1	-2.4%
CCCCN(C(=O)c1ccco1)c1nnc(-c2cc(OC)c(OC)c(OC)c2)s1	32.1%
COc1ccc(-c2nc3cnc(Nc4cccc(OC)c4)nc3n(C)c2=O)cc1	13.2%
COc1ccc(NC(=O)N2CCCC3(CCN(C(=O)c4ccco4)CC3)C2)cc1	17.0%
CCOC(=O)N1CCC(Nc2c(NCCCN(CC)c3cccc(C)c3)c(=O)c2=O)CC1	56.5%
CCc1nc(-c2ccc(-c3ccc(OC)cc3)nc2OC)no1	76.2%
CCCOc1ccccc1NC(=O)c1ccc(N)cc1	-7.0%
COC(=O)CSc1nc(-c2ccccc2)cc(-c2ccco2)c1C#N	?
C=CCSc1nnc(Cn2c(=O)sc3ccccc32)n1C	3.98µM*[single pt active]
Cc1nc2nc(-c3cccnc3)[nH]n2c(=O)c1Cc1ccccc1	-18.1%
CC(C)[C@@H](CC(=O)N[C@@H]1CCCC[C@H]1C(=O)N[C@H](CC(=O)N[C@@H](CCC(=O)O)CC(=O)O)Cc1c[nH]c2ccccc12)NC(=O)C[C@H](CO)NC(=O)[C@@H]1CNCC[C@H]1N	91.9%
COc1ccc2c(c1OC)C(=O)OC2Nc1ccccc1S(=O)(=O)C(F)F (centres undefined)	-2.4%
CN(C)C(CNC(=O)NC1CCCCC1)c1cccnc1 (centres undefined)	-9.8%
Cc1ccccc1-c1nnc(-c2ccc(Cl)cc2)o1	3.0%
CCOC(=O)N1CCN(C(=O)c2ccc(N3C(=O)c4ccccc4C3=O)cc2)CC1	48.1%
O=C(NC1CCCCC1)c1ccc2c(=O)n(CC3CCCO3)c(=O)[nH]c2c1 (centres undefined)	11.2%
CCOc1ccccc1Nc1cc(C)nc2nc(C)nn12	10.1%
Cc1c(C(=O)N2CCOCC2)oc2c1C(=O)CC(C)(C)C2	11.6%
Nc1nc(NCc2ccccc2)nc(-c2ccccc2)n1	-3.6%
Cc1ccc(-c2nnc3ccc(SCC(=O)NCc4ccco4)nn23)cc1	11.6%
COc1ccc(CN2CCN(c3ccccn3)CC2)c(OC)c1	9.1%
O=S(=O)(c1ccc(Cl)cc1)N1CN2CCN(C2)C1	?
CC1CCN(c2ccc(C(=O)NCCc3ccccc3)cn2)CC1	3.9%

The listing continues:
SMILES	AmpC nodet inh
CCOc1ccc(C(=O)N2CCN(c3cccc(C)c3C)CC2)cc1	75.9%
CCOC(=O)c1sc(C)c2c(=O)n(CC)nnc12	4.8%
Cn1c(CNC(=O)c2ccc(F)cc2)nc2ccccc21	2.7%
CC(=NCc1ccco1)c1c(O)n(C)c(=O)n(C)c1=O	-0.9%
COCc1nnc(NC(=O)CSc2ccc(C)cc2)s1	-2.4%
Cc1c(NCc2nc3ccccc3[nH]2)c(=O)n(-c2ccccc2)n1C	-6.4%

Filtered by structure, the entries above containing two or more sulfur atoms (7)
SMILES	AmpC nodet inh
CSc1ccc(S(=O)(=O)NCc2ccccc2Cl)cc1	-14.7%
CCc1nnc(NC(=O)c2cc3c(s2)CCCCC3)s1	-24.7%
Nc1nnc(CCN2C(=O)CSC2=O)s1	-11.8%
COc1ccc(C)cc1NC(=O)CSc1nc(SC)ns1	0.4%
CSCc1nnc(NC(=O)c2ccc(S(=O)(=O)N(CC(C)C)CC(C)C)cc2)o1	-5.6%
C=CCSc1nnc(Cn2c(=O)sc3ccccc32)n1C	3.98µM*[single pt active]
COCc1nnc(NC(=O)CSc2ccc(C)cc2)s1	-2.4%

Exported comma-delimited: 3 of the compounds above.
smiles,AmpC nodet inh
CCOc1ccc(C(=O)N2CCN(c3cccc(C)c3C)CC2)cc1,75.9%
CCOC(=O)c1sc(C)c2c(=O)n(CC)nnc12,4.8%
Cn1c(CNC(=O)c2ccc(F)cc2)nc2ccccc21,2.7%

Only part of the results is shown. The share of hits here may be higher or lower than overall.
